AF4-AF9 inh: inhibitors of AF4 peptide binding to AF9, primary screen, biochemical, AlphaScreen, biotin-AF4 peptide, FLAG-AF9, single point. Protein AF-9 (Homo sapiens), P42568. inhibition, % at 10 µM. 350,000 compounds, 0.47% hits. AID 651704, 2012;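 active = every replicate reaching a set inhibition limit, whatever the replicate mean, cut at about 25% in these data; inconclusive = mean inhibition reaches that limit but some replicates miss it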;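 note: 0% = plate neutral control median and 100% = total signal loss; the record names both 10 and 1 µM as test concentration; the first replicate is given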
Target sequence (P42568 whole entry, looked up): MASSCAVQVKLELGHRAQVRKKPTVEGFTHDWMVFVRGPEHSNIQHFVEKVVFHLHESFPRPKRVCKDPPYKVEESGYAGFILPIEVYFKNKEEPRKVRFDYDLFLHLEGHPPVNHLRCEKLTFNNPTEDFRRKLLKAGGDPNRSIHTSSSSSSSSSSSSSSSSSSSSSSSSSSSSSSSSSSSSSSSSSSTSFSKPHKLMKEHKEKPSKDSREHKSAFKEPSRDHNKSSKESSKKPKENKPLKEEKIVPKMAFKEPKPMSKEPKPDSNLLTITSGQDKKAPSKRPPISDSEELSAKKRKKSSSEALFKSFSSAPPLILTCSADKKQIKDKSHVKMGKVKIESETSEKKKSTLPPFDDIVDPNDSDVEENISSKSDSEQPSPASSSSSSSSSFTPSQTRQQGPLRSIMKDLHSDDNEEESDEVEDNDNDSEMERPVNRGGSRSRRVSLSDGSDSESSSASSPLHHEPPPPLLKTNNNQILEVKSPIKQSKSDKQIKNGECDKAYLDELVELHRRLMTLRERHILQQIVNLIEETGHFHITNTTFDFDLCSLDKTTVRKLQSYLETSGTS
T cruzi inh: inhibitors of intracellular T. cruzi growth, primary screen, luminescence, NIH3T3 host cells; T. cruzi beta-gal in NIH3T3, 90 h; inhibition, % (no concentration beside the values); 300,000 compounds, 1.4% hits; AID 1885, 2009;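 active = mean inhibition across valid replicates above about 55%, limit read from the data; inconclusive = mean below that limit but half or more replicates reach it; inactive = mean below it, under half of replicates reach it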;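 note: signal also drops with host cell toxicity which is not excluded here; 0% = plate median of DMSO wells and 100% = zero luminescence signal; higher percent means less beta-gal luminescence so fewer parasites; stock transfer was 50 nL into about 50 µL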
Beta apoptosis: inhibitors of cytokine-induced beta cell apoptosis, primary screen, luminescence. 300,000 compounds, 0.8% hits. protection from apoptosis, % (concentration not given with the values). INS-1E cytokine-induced death, ATP luminescence, 48 h; percent of positive-control rescue, neutral wells zero;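 active = all replicates at 75% or more, or half of them and the mean; inconclusive = half reach 75% but not the mean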;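 note: 0% = cytokine-treated negative control wells and 100% = positive control rescue; higher means more ATP so stronger rescue from cytokine killing; wells of about 40 µL received 100 nL stock; the first replicate is given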
A1 inh: caspase 3/7 activation in MEF A1-2A-BIM cells, primary screen, A1 inhibitor project, cell-based, luminescence, HTS; Caspase-Glo 3/7 luminescence, 3 h; percent of clofoctol response, vehicle zero; caspase activation, % (concentration not given with the values); 330,000 compounds, 0.066% hits;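 active = over half of replicate activation scores above 10%, or exactly half above 10 with the replicate mean above 10; inconclusive = replicate mean below 10 yet half the replicates above 10; inactive = over half of replicates below 10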;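 note: wells of about 30 µL received 50 nL stock; many hits fall short of the cut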
Vif A3G: inhibitors of Vif binding to APOBEC3G peptide, primary screen, biochemical, TR-FRET, GST-Vif 1-94, biotin-A3G peptide, dose response retest (AID 1117319) | 260,000 compounds, 0.57% hits | Virion infectivity factor (Human immunodeficiency virus type 1 group M subtype B (isolate … | TR-FRET GST-Vif / biotin-A3G peptide binding; higher % means a stronger effect; test concentration not given here; strong numbers were not always called active | one-dose inhibition, %; IC50 in µM for titrated hits;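 active = above the screen mean plus three standard deviations and confirmed in dose response; inconclusive = results disagree or hit not tested in dose response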;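 note: Vif residues 1-94 fused to GST binding biotinylated APOBEC3G peptide 110-148; 0% = full assay without inhibitor and 100% = GST in place of GST-Vif; retest series ran down from 100 µM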
rRNA inh HTS: reduced GFP signal of wild-type E. coli, primary screen, bacterial rRNA inhibitor project, GFP/RFP fluorescence, OD600, single point; E. coli WT GFP vs humanized-ribosome RFP mutants, 24 h; active compounds read low; DMSO median 0, no signal -100; GFP signal change (wild-type ribosome), % (no concentration beside the values); 350,000 compounds, 1.6% hits;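 active = significant combined selectivity score with lowered wild-type GFP, culture density cut under 30%, mutant RFP and density less affected; inactive = any of these conditions unmet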; note: one replicate is shown; some compounds called inactive have numbers as strong as hits
RanGTP-Imp inh: inhibitors of RanGTP-importin-beta interaction, primary screen, biochemical, FRET, CFP-Ran, YFP-importin-beta, homogeneous; Ran GTPase (GTP-bound) - importin-beta complex; cell-free CFP-Ran/YFP-importin-beta FRET ratio; inhibition, % (no concentration beside the values); 300,000 compounds, 1.1% hits; AID 2216, 2009;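 active = most replicates above 15%; inconclusive = exactly half above 15%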;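 note: 0% = DMSO wells and 100% = Ran loaded with GDP instead of GTP; wells of about 40 µL received 100 nL stock; the first replicate is given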
Calb FLC: C. albicans growth inhibition with fluconazole, primary screen, CaCi-2 strain, Alamar Blue fluorescence; growth inhibition, % (concentration not given with the values); C. albicans CaCi-2 (fluconazole-resistant clinical isolate) + fluconazole, 48 h; 300,000 compounds, 0.57% hits; AID 1979, 2009;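 active = most replicates above 75%; inconclusive = exactly half above 75%; inactive = most below 75%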;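 note: all wells also contain fluconazole at 8 µg/ml as a sub-toxic cotreatment; 0% = median of DMSO wells and 100% = median of geldanamycin control wells; wells of about 8 µL received 7.5 nL stock; the first replicate is given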
rRNA inh HTS OD600: second read-out of rRNA inh HTS, no call of its own (marks repeat the call); OD600 change, %; measured here: OD600 growth;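 optical density of the mix in the first replicate; 0 = DMSO median and -100 = no signal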
rRNA inh HTS RFP: further read-out of rRNA inh HTS, marked with its call; RFP signal change, %; measured here: RFP humanized mutant strains;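 first replicate; 0 = DMSO median and -100 = no signal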
* = called active by the depositor; u = inconclusive; x = no result given.

SMILES | AF4-AF9 inh | T cruzi inh | Beta apoptosis | A1 inh | Vif A3G | rRNA inh HTS | rRNA inh HTS OD600 | rRNA inh HTS RFP | RanGTP-Imp inh | Calb FLC
CCC(CC)COC(=O)C(C#N)c1nc2ccccc2nc1N1CCN(CC)CC1 (stereo unspecified) | x | 55.0* | 8.2 | 0.7 | 2.6% | x | x | x | 14.0 | 53.9
Cc1nn(-c2ccccc2)c2sc(C(=O)O)cc12 | x | 3.5 | -5.0 | 0.3 | 1.9% | x | x | x | -1.5 | 26.6
CSc1ccn(CCC(=O)O)c(=O)n1 | x | 9.3 | -0.7 | 0.5 | 1.3% | x | x | x | -7.1 | 8.0
COc1ccc(-c2[nH]ncc2CN(CCO)CC23CC4CC(CC(C4)C2)C3)c(OC)c1 | 2.7 | 2.0 | 8.1 | 0.1 | 29.1% | -7.3 | 5.3 | 2.3 | -3.8 | 7.0
CCOC(=O)CNC(=O)c1cccnc1Oc1ccc(Cl)cc1 | -0.2 | -6.9 | -1.7 | 1.2 | 0.0% | x | x | x | 3.8 | -2.4
CN(c1ccc(C(=O)Nc2nccs2)cc1)S(=O)(=O)c1ccccc1 | x | 10.7 | -3.8 | -0.3 | -6.5% | x | x | x | u | -23.2
O=C(NC1CCCCC1)c1ccccc1NC(=O)C1CC(=O)N(c2ccccc2)C1 (stereo unspecified) | x | -2.4 | 6.4 | 0.7 | 27.6% | x | x | x | 3.2 | 5.3
COc1ccc(C(=O)NNC(=O)CN2CCC(n3nnc4cc(C(F)(F)F)ccc43)CC2)cc1 | 1.4 | -4.4 | -6.4 | -0.6 | -0.9% | 6.5 | 5.3 | -4.9 | 7.7 | 3.9
CCOC(=O)c1c(C)oc2c1cc(NS(=O)(=O)c1ccc(C(=O)O)cc1)c1ccccc12 | 2.8 | -4.9 | -2.0 | -0.1 | 10.7% | -35.8 | -43.0 | -7.7 | 0.8 | 27.1
Cc1ccc(N(CN2C(=O)NC(C)(C)C2=O)CN2C(=O)NC(C)(C)C2=O)cc1 | x | -4.6 | 3.7 | 0.1 | 15.6% | x | x | x | -1.5 | -12.4
O=C(NC(Cc1ccc(O)cc1)C(=O)O)c1ccco1 (stereo unspecified) | -1.2 | -20.5 | -4.4 | 0.0 | x | 16.8 | 20.4 | -0.6 | 3.0 | 15.2
N#CCCS(=O)(=O)c1ccc(N)cc1 | x | -14.8 | -5.5 | 2.2 | -3.7% | x | x | x | 0.4 | -5.6
CC(O)/C=C/c1ccc2ccccc2n1 (stereo unspecified) | x | -33.4 | -11.0 | 0.2 | -3.4% | x | x | x | 3.7 | 58.0
O=S(=O)(NCc1ccc(Cl)cc1Cl)c1cccs1 | -1.8 | -18.2 | -15.9 | 1.2 | x | -47.1 | -75.2 | -10.4 | 3.2 | 3.2
O=C(COC(=O)c1cccnc1Cl)NCCCc1ccccc1 | u | x | -5.7 | -0.5 | -10.3% | 1.8 | -2.7 | 0.6 | x | x
COc1ccc(/C(C)=N/NC(=S)NCCc2ccccc2)c(O)c1 | -3.7 | -9.8 | 50.6 | 0.1 | x | -34.2 | -52.5 | -8.8 | -0.5 | -18.0
COc1ccc(NC(=O)c2c(N)no[n+]2[O-])c(OC)c1 | 1.3 | -2.6 | -4.6 | 0.9 | x | 9.2 | 7.2 | 0.4 | -3.3 | -36.7
O=C(O)c1ccc(NS(=O)(=O)c2cccc(C(=O)Nc3ccccc3[N+](=O)[O-])c2)cc1 | -1.0 | -11.1 | x | x | -2.8% | 5.9 | 8.3 | -3.0 | -0.7 | 4.2
Clc1ccc(OCCOCCN2CCCCC2)c(Br)c1 | x | 59.1* | 1.9 | 0.6 | -4.5% | x | x | x | 1.9 | 24.1
COc1cc(CNC(=O)C2CCCN2S(=O)(=O)c2ccccc2)cc(OC)c1OC (stereo unspecified) | -0.7 | 20.5 | -4.3 | 0.9 | 7.9% | 3.9 | 1.0 | -9.7 | -5.2 | -1.4
COc1ccc(C(=O)Nc2nc(-c3ccccc3)c(C(C)=O)s2)c(OC)c1 | -1.2 | -19.3 | -9.8 | -0.8 | 11.9% | 6.2 | 4.0 | -0.2 | 2.5 | u
O=C(NCC1CCCO1)C(c1cccs1)N(Cc1cccs1)C(=O)c1ccc(-c2ccccc2)[nH]1 (stereo unspecified) | 8.7 | 7.1 | -0.2 | 0.1 | x | -3.7 | -4.1 | 20.3 | 8.7 | -3.3
CCOc1ccc(NC(=O)CCC(=O)NNC(=O)c2ccccc2Cl)cc1 | -2.0 | x | -1.7 | 1.6 | 4.7% | 6.0 | 15.0 | -0.1 | x | 4.0
Cc1ccc(NS(=O)(=O)c2ccc(C(=O)N3CCN(c4ncccn4)CC3)cc2)cc1 | 0.0 | -38.9 | 56.6 | -0.6 | 2.9% | -27.8 | -45.7 | -7.8 | -1.0 | -4.4
COc1ccc(N2CCN(C(=O)c3cccnc3)CC2)c([N+](=O)[O-])c1 | 1.2 | 1.3 | -2.9 | 1.8 | 9.3% | -6.3 | -2.3 | -0.1 | -4.3 | 49.0
CC(O)c1nc2ccccc2n1Cc1nnc(-c2ccc(Cl)cc2)o1 (stereo unspecified) | x | 7.5 | 1.2 | -0.8 | -1.6% | x | x | x | 0.5 | 12.5
O=C(CC1SC(N2CCOCC2)=NC1=O)Nc1cc([N+](=O)[O-])ccc1Cl (stereo unspecified) | 0.1 | -10.2 | -0.1 | -0.6 | -3.9% | 6.8 | 22.3 | 0.7 | 1.3 | 6.3
CCOc1ccc(N(CC(=O)N/N=C(\C)c2cccc(NC(C)=O)c2)S(=O)(=O)c2ccccc2)cc1 | 0.2 | -0.1 | -9.8 | 1.1 | 3.0% | -4.2 | -3.2 | 0.3 | 2.3 | -0.2
C=CCn1c(SCC(=O)NNC(=S)Nc2ccccc2)nnc1-c1ccccc1 | 2.0 | 4.6 | -5.3 | 0.4 | 3.3% | -16.4* | -0.8* | 2.7* | 2.3 | 14.0
COc1ccccc1-c1cnn2c(NCc3ccccc3)cc(C)nc12 | -1.7 | 17.1 | -3.6 | -0.4 | 12.2% | -20.0 | -16.8 | -7.9 | 2.7 | 6.3
C/C(N)=C(/C#N)C(=O)COC(=O)c1ccc(C#N)cc1 | 0.0 | -1.7 | -2.4 | -0.5 | -0.6% | 22.4 | 20.4 | 0.7 | 1.4 | -12.9
CN(Cc1cn(-c2ccccc2)nc1-c1cc2ccccc2o1)C(=O)CCC(=O)O | -14.2 | 45.3 | -2.2 | 0.3 | 2.6% | -31.6 | -35.9 | -7.1 | 2.8 | 3.3
CCOc1ccc2[nH]c(C)c(CN3CCOCC3)c(=O)c2c1 | 6.2 | -11.4 | 3.8 | -0.4 | -4.8% | 7.2 | 15.1 | -0.5 | 6.0 | -7.9
CCOC(=O)/C=C1\SCC(=O)N1CC(=O)N1CCOCC1 | -2.3 | -7.7 | 5.8 | 0.7 | -4.1% | 16.3 | 10.9 | 2.5 | 2.4 | -8.9
CC(=O)c1cc(CN2CCN(CCc3ccccc3)C(CCO)C2)cs1 (stereo unspecified) | 0.0 | 14.3 | 1.5 | 0.5 | u | 17.0 | 9.5 | 1.1 | 2.1 | -41.5
CCCCNC(=O)c1nn2c(C(F)(F)F)cc(-c3ccccc3)nc2c1Br | -3.2 | 27.0 | x | 0.0 | x | 10.6 | 13.0 | 4.5 | -0.5 | 2.7
CCCCC(CC)CNC(=O)CCS(=O)(=O)c1cccc2nonc12 (stereo unspecified) | x | -7.2 | 1.5 | -0.3 | 2.2% | x | x | x | -2.6 | u
CCCCn1c(N)c(N(CC)C(=O)c2cccc(F)c2)c(=O)[nH]c1=O | -1.7 | -12.9 | -7.9 | 0.0 | x | 2.9 | 6.5 | -1.8 | 1.2 | 12.5
O=C(NC1CC1)C1CCN(c2ccc(S(=O)(=O)N3CCOCC3)cc2)CC1 | 3.2 | 10.6 | x | x | 16.7% | 5.4 | 12.5 | -2.1 | 2.1 | 8.2
CC(C)n1nc(C(=O)Oc2cccc(Cl)c2Cl)c2ccccc2c1=O | 5.2 | -9.6 | -0.9 | 0.5 | x | -2.1 | -2.9 | -3.0 | 1.6 | -1.9
O=C(OCc1ccc([N+](=O)[O-])cc1)c1ccc(N2CCCC2)c([N+](=O)[O-])c1 | 3.2 | 16.0 | 0.0 | 0.9 | 7.1% | 14.0 | 11.9 | -0.3 | 0.6 | u
COc1cccc(/C=C/C(=O)OCC(=O)c2ccc3c(c2)NC(=O)CO3)c1 | -22.0 | x | -0.4 | -0.4 | 15.9% | -1.0 | 2.7 | 0.1 | x | x
COc1cc(/C=C/C(=O)Nc2cccc(S(=O)(=O)N3CCOCC3)c2)ccc1OCC#N | 4.7 | x | 2.8 | -0.2 | 18.4% | -4.4 | -8.2 | 12.0 | x | x
COc1cc2cc3c(N)c(C(=O)Nc4sc(C)c(C)c4C#N)sc3nc2cc1OC | x | -41.9 | 8.9 | -0.1 | u | x | x | x | -8.8 | -5.1
CCC1Oc2ccccc2N(Cc2ccccc2C)C1=O (stereo unspecified) | x | -1.0 | -2.7 | 1.2 | 3.5% | x | x | x | 0.5 | -16.4
CCOC(=O)C1CCCN(CCC(=O)Nc2cccc(F)c2)C1 (stereo unspecified) | 4.9 | -10.8 | -8.0 | 1.6 | 20.5% | 7.3 | -0.1 | -1.3 | 3.9 | -2.0
O=C(CN(C(=O)CSc1nc2ccccc2o1)c1cccc(F)c1)NC1CCCCC1 | x | 15.2 | x | 0.1 | 1.3% | x | x | x | 1.7 | -6.4
O=C(NC(=S)Nc1ccccc1N1CCCC1)c1ccc(F)cc1 | x | -1.6 | 1.2 | 1.6 | 14.3% | x | x | x | 2.0 | 0.7
O=C(NCCOc1ccccc1)C1CCC(=O)N(Cc2ccc(Cl)cc2)C1 (stereo unspecified) | -8.3 | -4.9 | 6.2 | -0.3 | 3.7% | -0.9 | -6.7 | 1.8 | -1.1 | 0.0
OCCC1CN(CCCc2ccccc2)CCN1Cc1ccccc1 (stereo unspecified) | -3.1 | 12.3 | -3.9 | 0.0 | -5.5% | 10.6 | -5.3 | 1.0 | u | -30.0

High-throughput results as filed in PubChem.

An excerpt (hit frequency here may not be typical).
